MT1-MMP act inh = blocks activation of human MT1-MMP | P50281 | HT1080 RFP-PRO-GFP cells, GFP/RFP ratio fluorescence, overnight; percent of plate control window, DMSO zero | GFP/RFP ratio change, % at 20 µM | hit rate 0.061% among 360,000 | AID 651647;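 active means GFP/RFP ratio change of at least 30% with cell ATP level not reduced by more than half and red fluorescence within 50% of control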; further: strong numbers were not always called active
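Test system: HT1080 RFP-PRO-GFP cells; Benchmarks: DMSO and RFP-L50D-GFP cell wells; Timing: cells overnight before dosing, compound overnight, 37 °C, 5% CO2; Compound: one 20 µM compound dose with 1% DMSO; Read-out: GFP/RFP fluorescence ratio.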
Yeast UUG start = yeast start codon fidelity modulation. S. cerevisiae UUG-firefly luciferase reporter, luminescence/redox ratio. activity score, % at 18.7 µM. hit rate 0.13% among 350,000. AID 602363;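 active means replicate mean at a twofold rise or more, about +100% in these data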;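 further: firefly luciferase made from a UUG start codon reports start codon fidelity; reporter light over untreated wells divided by growth signal over untreated wells; some hits fall short of that in this replicate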
MT1-MMP act inh RFP = recorded beside MT1-MMP act inh, whose call it bears; RFP signal change, %; measured here: RFP expression control read;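 0 = vehicle wells; hits needed this value within 50% of zero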
An asterisk follows results filed as active; & = joins results of further samples.

Start of the data: the first 7 compounds as a preview:
SMILES	MT1-MMP act inh	MT1-MMP act inh RFP	Yeast UUG start
CC1(C(=O)NS(=O)(=O)c2ccccc2)CCN1C(=O)C1CCCCC1 (configuration not stated)	2	0	-14
CCn1c(SC(C)C(=O)Nc2ccc3c(c2)OCCO3)nnc1C1CC1 (configuration not stated)	0	4	-17
O=C(COc1coc(CN2CCN(c3ccc(F)cc3)CC2)cc1=O)NC1CCCCC1	-9	-13	1
C[C@H](CO)N1C[C@H](C)[C@@H](CN(C)C(=O)Nc2ccc(F)cc2)OCc2cnnn2CCCC1=O	2	1	-22&-10
CO[C@H]1/C=C/O[C@@]2(C)Oc3c(C)c(O)c4c(O)c(c5c(c4c3C2=O)NC2(CCN(CC(C)C)CC2)N=5)=NC(=O)/C(C)=C\C=C\[C@H](C)[C@H](O)[C@@H](C)[C@@H](O)[C@@H](C)[C@H](OC(C)=O)[C@@H]1C	-2	2	-12
O=C(NC1CCC(O)CC1)C1CCN(S(=O)(=O)c2c(Cl)cccc2Cl)CC1 (configuration not stated)	-3	-1	-4
C#CCN(C[C@H]1[C@H](OC(=O)NCCCCCC)[C@H](OC(=O)NCCCCCC)C[C@@H](C(=O)OC)[C@H]1C(=O)OC)S(=O)(=O)c1ccc(C)cc1	-7	-9	1

The listing, from the first entry:
SMILES	MT1-MMP act inh	MT1-MMP act inh RFP	Yeast UUG start
CC1(C(=O)NS(=O)(=O)c2ccccc2)CCN1C(=O)C1CCCCC1 (configuration not stated)	2	0	-14
CCn1c(SC(C)C(=O)Nc2ccc3c(c2)OCCO3)nnc1C1CC1 (configuration not stated)	0	4	-17
O=C(COc1coc(CN2CCN(c3ccc(F)cc3)CC2)cc1=O)NC1CCCCC1	-9	-13	1
C[C@H](CO)N1C[C@H](C)[C@@H](CN(C)C(=O)Nc2ccc(F)cc2)OCc2cnnn2CCCC1=O	2	1	-22&-10
CO[C@H]1/C=C/O[C@@]2(C)Oc3c(C)c(O)c4c(O)c(c5c(c4c3C2=O)NC2(CCN(CC(C)C)CC2)N=5)=NC(=O)/C(C)=C\C=C\[C@H](C)[C@H](O)[C@@H](C)[C@@H](O)[C@@H](C)[C@H](OC(C)=O)[C@@H]1C	-2	2	-12
O=C(NC1CCC(O)CC1)C1CCN(S(=O)(=O)c2c(Cl)cccc2Cl)CC1 (configuration not stated)	-3	-1	-4
C#CCN(C[C@H]1[C@H](OC(=O)NCCCCCC)[C@H](OC(=O)NCCCCCC)C[C@@H](C(=O)OC)[C@H]1C(=O)OC)S(=O)(=O)c1ccc(C)cc1	-7	-9	1
CC(C)(C)c1ccc(S(=O)(=O)NC(=O)C2(C)CCN2C(=O)Cc2cccs2)cc1 (configuration not stated)	1	5	-2
COC(=O)c1cc(CNC(=O)c2ccc(S(=O)(=O)N(C)c3ccccc3)cc2)ccc1OC	3	-3	-14
COc1cc2c(cc1[N+](=O)[O-])-c1ccc([N+](=O)[O-])cc1C2=NNC(N)=S	14	-5	-14
Cc1cc(C)c(NC(=O)CSCc2nc3sc(C)c(C)c3c(=O)[nH]2)c(Cl)c1	-19	5	-11
CCN(CC)S(=O)(=O)c1ccc(C(=O)Nc2cc(S(=O)(=O)N3CCOCC3)ccc2N2CCN(C)CC2)cc1	-5	1	9
O=C1OC(CC(=O)N(Cc2nnc(-c3ccc(Cl)cc3)o2)C2CC2)c2ccccc21 (configuration not stated)	-1	3	5
O=C(Nc1ccc2c(c1)OCO2)c1cc(C2CCCCN2S(=O)(=O)c2cccs2)on1 (configuration not stated)	-1	-15	-11
CC(=O)c1ccc(S(=O)(=O)Nc2ccccc2C(=O)NC2CC2)cc1	3	2	-21
COc1cccc(NC(=O)C(c2ccccc2)N2CCN(CC(=O)N3CCOCC3)CC2)c1 (configuration not stated)	-1	2	-38
COC(=O)[C@H](Cc1ccc(O)cc1)NC(=O)Cn1cnc2c(SC)nc(N)nc21	1	5	-8
Cc1cc(C(=O)OCC(=O)NCCc2ccccc2)c2ccccc2n1	2	-3	-17
CSc1ccc(CN2C(=O)C(F)(F)Oc3c(C(C)=O)cccc32)cc1	-1	-23	1
CC(=NNS(=O)(=O)c1ccc(C)cc1)c1ccncc1	4	-3	-4
Cc1cccc(C)c1NC(=O)COC(=O)CN1C(=O)C2CCCCC2C1=O (configuration not stated)	1	4	-21
CC[C@]12c3[nH]c4ccc(OC)cc4c3CCN1C(=O)C(CC(=O)NCC13CC4CC(CC(C4)C1)C3)C[C@@H]2C(=O)N1CCN(C(=O)c2ccco2)CC1 (some centres not stated)	1	-9	-15
COc1ccc(-c2cn3nc(C)c(C)nc3n2)cc1OC	1	1	-10
COc1ccccc1-n1nnnc1SCC(=O)NC(=O)Cc1ccccc1	1	0	-11
O=C(Nc1cc([N+](=O)[O-])ccc1O)NC1CCS(=O)(=O)C1 (configuration not stated)	15	4	-7
O=C(NNC(=O)c1ccccc1-n1cccc1)c1ccc(Cl)nc1	1	6	-8
COc1ccc(NS(=O)(=O)c2cc(NC(=O)C(CC(C)C)NC(N)=O)ccc2N2CCOCC2)cc1 (configuration not stated)	0	0	-4
COc1ccc(NC(=O)CN(C)C(=O)c2ccc3c(c2)NC(=O)CS3)cc1	-5	5	-5
O=S1(=O)c2ccc(Br)cc2N2CCC[C@@H]2CN1C1CC1	-3	-7	2
c1ccc(-c2nc3c4ccccc4ccn3c2Cc2ccsc2)cc1	0	2	11
NC(=O)C1CCN(C(=O)C2CC(=O)N(Cc3ccccc3)C2)CC1 (configuration not stated)	-1	-1	-20
CCCOc1ccc(C(F)(F)F)cc1NC(=O)c1cc(C)on1	1	-1	-11
CCCn1c(=O)n(C)c(=O)c2c(SCC(=O)Nc3cc(C)on3)nc(C(C)(C)C)nc21	0	-5	-21
CCc1ccc([C@H]2C(C(=O)O)=C[C@@H](CC)N2S(=O)(=O)c2ccc(C)cc2)cc1	1	1	15
CC(C)CNC(=O)/C=C/C=C/c1ccc2c(c1)OCO2	0	-2	-18
O=C(c1cccs1)N1C[C@@H](n2cc(-c3ccc(F)cc3)nn2)[C@H](O)C[C@@H]1c1ccc(Cl)cc1	0	-10	8
COc1ccc(-c2ccc3nncn3c2)cn1	0	5	-11
CC1CCN(S(=O)(=O)c2ccc(NC(=O)C3CCCCC3C(=O)O)cc2)CC1 (configuration not stated)	-1	2	-6
O=C(CCNS(=O)(=O)c1ccccc1)NNC(=O)COc1ccc(Cl)cc1	5	1	-16
O=C(CN1C(=O)NC2(CCCC2)C1=O)N1CCN(c2ccc(C(F)(F)F)cc2[N+](=O)[O-])CC1	7	-11	-2
NCCCNCCCCNCCCN	2	3	-19
CCN(C(=O)CSc1nnc(-c2ccco2)n1CC)c1c(N)n(Cc2ccccc2)c(=O)[nH]c1=O	5	4	-2
O=C1OCCN1C(=O)[C@H]1[C@H](c2ccc(F)cc2)C(c2ccccc2)=NN1c1ccc(Br)cc1	-3	-3	-17
OC(CN1CCCCC1)c1ccc2c3c(cccc13)CC2 (configuration not stated)	1	0	-6
CCOCCCn1c(SC(C)C(=O)NCC2CCCO2)nc2sc(C)c(C)c2c1=O (configuration not stated)	-1	3	-17
O=C(Nc1ccncc1)C1CCN(S(=O)(=O)c2ccc(Cl)c(C(F)(F)F)c2)CC1	5	-7	0
Nc1nc(SCC(=O)Nc2ncc(Cl)cc2Cl)n[nH]1	1	6	-18
CCNC(=O)C1(C)CCN(C(=O)c2ccccc2OC)C1 (configuration not stated)	2	3	1
N#CCC(=O)Nc1ccc(C(=O)Nc2ccc3c(c2)OCO3)cc1	0	3	-14
CCOc1ccc(NC(=O)COC(=O)c2ccc3c(c2)OCCO3)cc1	1	0	-11
O=C(COc1ccc([N+](=O)[O-])cc1Cl)N(C1CCCCC1)C1CCS(=O)(=O)C1 (configuration not stated)	-1	2	-2
O=C(O)c1cc(S(=O)(=O)N2CCOCC2)c[nH]1	2	-1	-1
O=C(NC(Cc1ccccc1)C(=O)N1CCN(S(=O)(=O)c2ccccc2F)CC1)c1ccccc1 (configuration not stated)	-3	0	-27
CC(C(=O)OCC(=O)N1CCN(c2ccccc2)CC1)N1C(=O)c2ccccc2C1=O (configuration not stated)	5	1	-3
O=C(COC(=O)CCNS(=O)(=O)c1cccs1)Nc1ccccc1	0	1	-13
CC(C)C(NC(=O)c1c(F)cccc1F)C(=O)N1CCN(S(=O)(=O)c2ccc(F)cc2)CC1 (configuration not stated)	-6	4	-19
Nc1ccn([C@@H]2O[C@H](CNCc3cnc(N4CCOCC4)nc3)[C@@H](O)[C@H]2O)c(=O)n1	3	7	-6
CC(=O)C1=CCC(c2ccco2)N(S(=O)(=O)c2ccc(C)cc2)C1 (configuration not stated)	4	1	-10
Cc1ccc2ccccc2c1C(O)c1ncc(-c2ccc(F)cc2)[nH]1 (configuration not stated)	3	-5	-18
COc1ccc2[nH]cc(CCNC(=O)/C=C/[C@H]3O[C@@H](n4cc(C)c(=O)[nH]c4=O)C[C@@H]3O)c2c1	5	5	-2

(list continues)
SMILES	MT1-MMP act inh	MT1-MMP act inh RFP	Yeast UUG start
Cc1ccccc1NC(=O)COC(=O)c1ccc2c(c1)C(=O)N(CCCN1CCOCC1)C2=O	3	-1	-13
O=c1[nH]c2nc(Br)[nH]c(=O)c2[nH]1	-2	5	-19
CC(C)[C@H](NS(=O)(=O)c1ccc(Cl)cc1)C(=O)OCC(=O)c1c(N)n(C)c(=O)n(C)c1=O	1	-3	16
CCCS(=O)(=O)NC(=O)C1(C)CCCN(C(=O)c2cccc(C)c2C)C1 (configuration not stated)	0	1	-3
O=C(NCc1cccc(C(F)(F)F)c1)c1ccc2sc(C3=C[C@@H](O)[C@@H](O)[C@@H](CO)O3)nc2c1	-2	1	-14
CC(C(=O)Nc1ccc(F)cc1Cl)N1CCN(S(=O)(=O)c2cccs2)CC1 (configuration not stated)	-6	1	-7
Cc1c(C(=O)Nc2nccs2)oc2ccc(F)cc12	-5	-2	-10
CC(C)CN1C(=O)C(=O)N(CC(=O)c2ccc3c(c2)CCCC3)C1=O	2	0	16
CCCN(C1CCS(=O)(=O)C1)S(=O)(=O)c1ccc2ccccc2c1 (configuration not stated)	2	-3	1
CC1(c2cc(F)ccc2F)NC(=O)N(CC(=O)Nc2cccc(S(=O)(=O)N3CCCC3)c2)C1=O (configuration not stated)	4	0	-27
COc1cc(OC)c2ccc(=O)oc2c1	-1	0	-10
COc1cc(C(=O)Nc2cccc(C)n2)ccc1OCC(=O)N1CCOCC1	1	5	4
CCCS(=O)(=O)NC(=O)C1(C)CCCN(C(=O)c2cc3ccccc3s2)C1 (configuration not stated)	0	-1	-10
CCc1nc2ccc(C(=O)N(C)CC(=O)Nc3cccc(F)c3)cc2nc1CC	1	0	8
CN(C(=O)CCc1nc2ccccc2c(=O)[nH]1)C1CCS(=O)(=O)C1 (configuration not stated)	3	3	-12
Cc1cccc(C)c1NC(=O)CN1CCN(CC(=O)c2cc(C)n(C3CC3)c2C)CC1	1	-1	-10
O=C(CN1C(=O)NC2(CCCCC2)C1=O)NCCCSc1ccccc1	-2	0	-6
COc1cccc(/C=N/Nc2ccc(S(=O)(=O)Nc3ccccc3C(=O)O)cc2[N+](=O)[O-])c1O	16	2	0
Cc1cccc(C)c1NC(=O)CNC(=O)c1cccc(S(=O)(=O)NCc2cccs2)c1	2	0	-9
COc1ccc(NC(=O)/C=C/c2ccc(S(=O)(=O)N3CCOCC3)cc2)cc1	-2	3	3

Not a retest: an excerpt of the list.
SMILES	MT1-MMP act inh	MT1-MMP act inh RFP	Yeast UUG start
Cc1ccccc1NC(=O)COC(=O)c1ccc2c(c1)C(=O)N(CCCN1CCOCC1)C2=O	3	-1	-13
O=c1[nH]c2nc(Br)[nH]c(=O)c2[nH]1	-2	5	-19

Further entries follow:
SMILES	MT1-MMP act inh	MT1-MMP act inh RFP	Yeast UUG start
Cc1nc2ccccc2nc1-c1ccc([N+](=O)[O-])cc1	2	-1	-12
COc1cc(COc2ccc(S(=O)(=O)N3CCOCC3)cc2[N+](=O)[O-])ccc1OC(F)F	3	-13	-3
COc1ccc(S(=O)(=O)N2CCOCC2)cc1NC(=O)CSc1ccc(F)cc1	-1	-1	-41
Cc1noc(C)c1C(=O)N1CCC1(C)C(=O)NS(=O)(=O)c1ccc(F)cc1F (configuration not stated)	2	5	-17
O=C(Cc1ccccn1)c1ccncc1	-1	-1	-8
CCCCN1C(=O)CC2CCOC21C (configuration not stated)	0	0	2
Cc1cc(-c2nc3ncccc3o2)ccc1NC(=O)c1ccc([N+](=O)[O-])o1	-1	5	-13
CC1(c2ccccc2Br)NC(=O)N(CC(=O)NC2CCCCC2)C1=O (configuration not stated)	0	0	-5
Cc1c(C)c2c(OCC(=O)NCC3CCC(C(=O)O)CC3)cc3c(c2oc1=O)CCC(C)(C)O3 (configuration not stated)	3	4	-10
C[C@@H]1CN(S(=O)(=O)C(C)(C)C)[C@@H](CCO)/C1=C\c1ccccc1	1	2	-8
CCCN(CC(=O)Nc1ccccc1C)C(=O)c1nn(CC)c(=O)c2ccccc12	-1	-1	-8
COc1ccc(S(=O)(=O)NC(=O)C2(C)CCN2C(=O)Cc2ccccc2)cc1OC (configuration not stated)	3	9	-9
CC1C(=O)N(Cc2cn(CC3CCCCC3)nn2)CCS(=O)(=O)N1Cc1ccc(-c2ccc(F)nc2)cc1 (configuration not stated)	0	-2	-9
CC(=O)Nc1ccc(S(=O)(=O)NCCC(=O)NCCOc2ccccc2)cc1	0	1	5

A draw from above in order of molar mass, descending:
SMILES	MT1-MMP act inh	MT1-MMP act inh RFP	Yeast UUG start
COc1ccc(S(=O)(=O)N2CCOCC2)cc1NC(=O)CSc1ccc(F)cc1	-1	-1	-41
Cc1noc(C)c1C(=O)N1CCC1(C)C(=O)NS(=O)(=O)c1ccc(F)cc1F (configuration not stated)	2	5	-17
CCCCN1C(=O)CC2CCOC21C (configuration not stated)	0	0	2

Assay outcomes (PubChem BioAssay)

An excerpt; rates above refer to the full screens.
